# VDR inhibitor – inhibitors of human vitamin D receptor | AID 504847 | Potency, µM, for inactives: max response, negative = inhibition, most hits filed as inhibitors | 0.93% of 400,000 active | VDR-SRC2-3 peptide fluorescence polarization, 2 h | P11473; active = well fitted inhibition curve with a large enough effect; also: series mostly up to about 120 µM
#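 After 23 nl compound addition and a short centrifugation, plates sat for 2 hours at ambient temperature; polarization of fluorescence then indicated loss of VDR binding to peptide SRC2-3.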
# Numbers without * were called inactive. % is scaled to controls: 0 for no effect and ±100 for the full control effect; potency is read from the fitted curve at half-maximal effect. A portion of the library; rates above refer to the full screens.
no.	SMILES	VDR inhibitor
1	Cc1cc(OC(C)C(=O)NCC2CCCO2)cc(C)c1Cl (configuration not stated)	11.3%
2	O=C(Nc1ccc(Cl)cn1)Nc1ccccc1F	-13.8%
3	Oc1ccccc1-c1cc(-c2ccc3c(c2)OCCO3)n[nH]1	-6.3%
4	COc1ccc(CNC(=O)c2ccc(NC(=O)CC3SC(N4CCCC4)=NC3=O)cc2)cc1 (configuration not stated)	-2.3%
5	COc1ccccc1CCNC(=O)c1cccc(S(=O)(=O)NCc2ccccc2)c1	-11.1%
6	Cc1ccc(C(=O)CSc2nnc(-c3ccccc3N)n2C)cc1C	-3.2%
7	Cc1ccc(S(=O)(=O)C2CCN(c3nc(-c4cccs4)nc4ccccc34)CC2)cc1	2.4%

# Three entries from above, sorted by heavy-atom count, smallest number first:
no.	SMILES	VDR inhibitor
2	O=C(Nc1ccc(Cl)cn1)Nc1ccccc1F	-13.8%
7	Cc1ccc(S(=O)(=O)C2CCN(c3nc(-c4cccs4)nc4ccccc34)CC2)cc1	2.4%
4	COc1ccc(CNC(=O)c2ccc(NC(=O)CC3SC(N4CCCC4)=NC3=O)cc2)cc1 (configuration not stated)	-2.3%

# Screens from PubChem BioAssay.
